# Source: PubChem (National Center for Advancing Translational Sciences (NCATS))
# VDR inh: vitamin D3 receptor (human) inhibition; 0.93% of 400,000 active; VDR-SRC2-3 peptide fluorescence polarization, 2 h; Potency, µM, without a hit: max response, negative = inhibition, hits mostly inhibitors; active = well fitted inhibition curve with a large enough effect; inconclusive = small, poorly fitted or top-dose-only effect, or another doubt; inactive = no such curve, though single readings can be large or run the other way; also: series mostly up to about 120 µM
# Target sequence (P11473 whole entry, looked up): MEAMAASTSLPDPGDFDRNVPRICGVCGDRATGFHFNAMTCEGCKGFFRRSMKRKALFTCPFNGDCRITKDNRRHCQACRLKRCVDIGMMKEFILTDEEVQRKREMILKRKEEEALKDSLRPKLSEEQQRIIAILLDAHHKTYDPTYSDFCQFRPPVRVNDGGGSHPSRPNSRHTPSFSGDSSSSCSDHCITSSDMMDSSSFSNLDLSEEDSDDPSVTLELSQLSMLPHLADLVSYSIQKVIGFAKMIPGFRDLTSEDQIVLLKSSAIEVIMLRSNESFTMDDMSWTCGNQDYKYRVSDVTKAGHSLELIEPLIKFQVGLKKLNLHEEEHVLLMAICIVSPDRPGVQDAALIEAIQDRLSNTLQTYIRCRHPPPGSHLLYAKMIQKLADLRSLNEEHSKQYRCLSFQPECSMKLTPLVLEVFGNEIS
#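 Compounds are added to VDR with labelled SRC2-3 coactivator peptide and held 2 h at room temperature. Inhibition of the VDR–peptide interaction is then read as a change in fluorescence polarization.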
# An asterisk follows results filed as active; ? = inconclusive. % is scaled to controls: 0 for no effect and ±100 for the full control effect; potency is read from the fitted curve at half-maximal effect. Some of the compounds tested. The share of hits here may be higher or lower than overall.
VDR inh | Molecule
? | Fc1ccccc1Cn1nnc2c(-n3ccnc3)ncnc21
-17% | COc1ccccc1Nc1nc(-c2cccc([N+](=O)[O-])c2)cs1
9% | COc1cccc(CNC(=O)c2ccc(CNS(=O)(=O)c3ccc(C)cc3)cc2)c1
-4% | COc1cc(C(=O)Nc2ccccn2)cc(OC)c1OC
45µM* | CN1CCN(C(c2ccc(Cl)cc2)c2cc(Cl)c3cccnc3c2O)CC1 (centres undefined)
11% | CN(C)CCC(Oc1ccccc1OCc1ccccc1)c1ccccc1 (centres undefined)
9% | O=C(Nc1ccc2oc(-c3cccnc3)nc2c1)c1ccc([N+](=O)[O-])o1
14% | O=C(NCc1n[nH]c(=S)n1-c1ccc(F)cc1)c1ccc(S(=O)(=O)N2CCCCC2)cc1
2% | CCOC(=O)Cc1csc(NC(=O)CCc2ccc(S(=O)(=O)N3CCOCC3)cc2)n1
4% | C=CCn1c(=O)c2ccccc2n2c(SCC(=O)NC(C)C)nnc12
-10% | COc1ccc(CNC(=O)CSc2nnc3c(Cl)cc(C(F)(F)F)cn23)cc1OC
11% | COc1ccc(N2CCN(c3oc(COc4ccccc4Cl)nc3C#N)CC2)cc1
10% | COc1ccc(-c2sc3cc(OC)c(OC)cc3c2-c2ccc(O)cc2)cc1
6% | COCCOC(=O)C1=C(C)N=C2SCCC(=O)N2C1c1cccs1 (centres undefined)
-26% | Cc1cc(NCC2CCCCC2)nc2ccccc12
-13% | Cc1ccc(/C=N\NC(=O)c2ccc(Cn3cc(Br)c([N+](=O)[O-])n3)o2)o1
3% | O=C(CN1CCCCC1)NNc1nc(-c2ccccc2)c2cc(Br)ccc2n1
7% | COC(=O)c1ccc(NC(=O)CN(c2ccc(OC)cc2)S(C)(=O)=O)cc1
16% | CN(c1ccc(OC(=O)CN2C(=O)NC3(CCCC3)C2=O)cc1)S(=O)(=O)c1ccccc1
-16% | O=C(Nc1ccc2c(c1)OCCO2)N1CCOCC1
-13% | Cc1ccc(S(=O)(=O)N/N=C/c2cccc([N+](=O)[O-])c2)cc1
-7% | COc1ccc2c(ccc[n+]2[O-])c1
2% | COc1ccccc1CN(C)C(=O)CSc1nnc(C2CC2)n1C1CC1
12% | Cc1nc(-c2ccc(S(=O)(=O)Nc3ccccc3C)cc2)co1
12% | O=C(Nc1cc(-c2ccc(Cl)cc2)no1)c1ccc(F)cc1
7% | COc1ccc(NC(C)(C)c2nnnn2-c2c(C)cccc2C)cc1
0% | Cc1ccccc1C(=O)N1CCN(c2ccc(NC(=O)c3cccc(OC(C)C)c3)cc2)CC1
0% | O=C(NCc1ccccn1)C(C(=O)c1ccc(F)cc1)n1ccccc1=O (centres undefined)
-21% | O=C(/C=C/c1ccccc1)NCCS(=O)(=O)N1CCN(c2ccc(F)cc2)CC1
79µM* | CCOC(=O)CSC1=NC(=O)/C(=C\c2ccc(Cl)cc2)S1
? | COc1ccc(C2=CC(=O)CC(c3ccc(F)cc3)C2)cn1 (centres undefined)
-1% | CCOCCCNC(=O)C(c1ccc(OC)cc1)N(Cc1ccc2c(c1)OCO2)C(=O)c1cnccn1 (centres undefined)
-13% | Cc1noc(C)c1C(=O)Nc1nc(-c2ccc(F)c(F)c2)cs1
-24% | O=C1NC2(CCCC2)N=C1c1ccc(F)cc1
-15% | Cc1ccc(C2CN(C)C3(C(=O)Nc4ccccc43)C23COc2ccccc2C3=O)cc1 (centres undefined)
7% | CCOC(=O)c1c(N)n(C2CC(C)(C)NC(C)(C)C2)c2nc3ccccc3nc12
-10% | O=C(Nc1nc2ccccc2n1CCOc1ccc(Cl)cc1)c1ccco1
5% | CC(=O)c1cccc(NC(=O)CN(c2ccccc2F)S(C)(=O)=O)c1
-11% | Cn1ccnc1SCC(=O)Nc1ccc(Cl)cn1
-23% | COc1ccc(OC)c(C2=NS(=O)(=O)N(C)C(C(=O)N3CCC4(CC3)OCCO4)=C2)c1

# Ordered by the number under VDR inh (largest number first): some entries from above.
VDR inh | Molecule
-7% | COc1ccc2c(ccc[n+]2[O-])c1
-13% | Cc1ccc(S(=O)(=O)N/N=C/c2cccc([N+](=O)[O-])c2)cc1
-15% | Cc1ccc(C2CN(C)C3(C(=O)Nc4ccccc43)C23COc2ccccc2C3=O)cc1 (centres undefined)

# Additional records:
VDR inh | Molecule
4% | COc1ccc(N(CC2CO2)S(=O)(=O)c2ccc(C)cc2)cc1 (centres undefined)
-15% | O=C(CNCc1ccccc1)Nc1ccc(F)cc1
? | Cc1cccc(NC(=S)Nn2cnnc2)c1C
21% | O=C(COc1ccc(Cl)cc1)NNC(=O)c1ccncc1
? | Cc1cccc(C(=O)Oc2csc(=S)n2C(=O)c2cccc(C)c2)c1
-20% | CC1CCN(c2nc3ccccc3nc2C(C#N)C(=O)OC2CCCCC2)CC1 (centres undefined)
-7% | O/N=C1\CCCc2ccc3ccccc3c21
-10% | COc1cc(C(=O)Nc2nc(N)n(-c3ccccc3)n2)cc(OC)c1OC
-9% | O=C(Nc1nnc(SCC(=O)N2CCCC2)s1)C1CC(=O)N(c2ccccc2)C1 (centres undefined)
2% | COc1cc2c(cc1NC(C)=O)CCCC2
3% | CCCC1C(c2ccccc2)C(C#N)(C#N)C2(C#N)CC1(N)NC2=O (centres undefined)
11% | O=C(CCc1nc2ccccc2s1)OCC(=O)c1ccc[nH]1
9% | CCOc1ccc(-c2nnn(CC(=O)c3ccc4c(c3)OCCO4)n2)cc1
-22% | CCOCCCNC(=O)c1ccc(OC(C)=O)cc1
-5% | O=c1[nH]c(Cc2cccc(C(F)(F)F)c2)nc2ccccc12
-1% | CCOC(=O)c1sc2nc(Cc3ccc(Cl)cc3)[nH]c(=S)c2c1C
71µM* | Nc1[nH]c(=O)[nH]c(=O)c1N=Cc1ccccc1
-7% | CC1=CC2=C(OC1N(C)C)c1cccc3cccc(c13)C2=O (centres undefined)
5% | Cc1nc2ccn(Cc3cccnc3)c(=O)c2cc1C(=O)N1CCN(c2ccccc2)CC1
4% | CCOC(=O)c1ccc(CN(Cc2ccc(F)cc2)S(=O)(=O)c2ccc(F)c(C(=O)Nc3ccc(Cl)cc3F)c2)cc1

# Next part; the last two above are carried over.
VDR inh | Molecule
5% | Cc1nc2ccn(Cc3cccnc3)c(=O)c2cc1C(=O)N1CCN(c2ccccc2)CC1
4% | CCOC(=O)c1ccc(CN(Cc2ccc(F)cc2)S(=O)(=O)c2ccc(F)c(C(=O)Nc3ccc(Cl)cc3F)c2)cc1
28% | O=C(Nc1ccc(Oc2ncnc3cc(Cl)ccc23)nc1)Nc1cccc(C(F)(F)F)c1
9% | CC1CN(C(=O)c2cc(S(=O)(=O)N3CCCCC3)ccc2Cl)CC(C)O1 (centres undefined)
4% | Cc1ccc(Cn2c(=O)c3ccccc3n3c(CCC(=O)NCCN4CCOCC4)nnc23)cc1
6% | O=C(N1CCCC1)C12CC3CC(CC(Cl)(C3)C1)C2
11% | Cc1ccc(OCCOCCN(C)C)c(Cl)c1
10% | CCOC(=O)CSc1nc2ccc(C)cc2[nH]1
16% | O=C(Nc1cc(C(F)(F)F)ccc1N1CCOCC1)c1cnccn1
15% | O=C1C2C3C=CC(C2C(=O)N1C1CCCCC1)C1C2C(=O)N(C4CCCCC4)C(=O)C2C31 (centres undefined)
-10% | Cc1cc(C(F)(F)F)nc(SCC(=O)c2cccc([N+](=O)[O-])c2)n1
-15% | COC(=O)c1c(NC(=O)Cc2ccc(OC)c(S(=O)(=O)N3CCOCC3)c2)sc(C)c1C
-1% | CCOC(=O)CN(Cc1ccccc1)C(C(=O)NC1CCCCC1)c1ccc(C)cc1 (centres undefined)
-21% | COc1ccc(C2(OC)Oc3cc(OC)ccc3C(=O)C2(O)OC)cc1 (centres undefined)
-12% | CC(C)(C)c1ccc(OCc2nnc(SCC(N)=O)n2N)cc1
2% | Nc1nnc(SCC(=O)c2ccccc2)s1
-6% | Cc1cccc(OC(=O)CN2C(=O)C3C4CCC(C4)C3C2=O)c1C (centres undefined)
8% | NS(=O)(=O)c1ccc(CCNC(=O)c2cnccn2)cc1
1% | Cc1cc(SCC(=O)c2cccs2)nc2ccccc12
-11% | CCNC(=S)N1CCN(c2nc(-c3cccc(OC)c3)cs2)CC1
0% | COc1ccccc1NC(=O)CSc1nnc(Cn2nnc(-c3ccccc3)n2)n1-c1ccccc1
-2% | Cc1nnc(SCC(=O)Nc2cc(C(F)(F)F)ccc2Cl)n1C

# A different layout for some results above.
> Cc1cc(SCC(=O)c2cccs2)nc2ccccc12
  VDR inh = 1%

> CCNC(=S)N1CCN(c2nc(-c3cccc(OC)c3)cs2)CC1
  VDR inh = -11%

> COc1ccccc1NC(=O)CSc1nnc(Cn2nnc(-c3ccccc3)n2)n1-c1ccccc1
  VDR inh = 0%

# (listing goes on)
VDR inh | Molecule
-17% | Cc1ccccc1CN1CCC(Oc2ccc(C(=O)N3CCCC3)cc2)CC1
79µM* | O=[N+]([O-])c1ccc(O)c(C2=NNC(c3ccccc3F)C2)c1 (centres undefined)
13% | CCOc1cc(N2CCOCC2)c(OCC)cc1NC(=O)COC(=O)c1cc(C)oc1C
4% | O=C(CSc1nc2ccccc2nc1Cc1ccccc1)NCc1ccccc1Cl
-1% | O=S(=O)(NCc1ccccc1)NCc1cccc(C(F)(F)F)c1
5% | Clc1ccc(Cl)c(OCCCCNCc2ccccc2)c1
-3% | Cc1ccccc1NC(=S)N(CCCN1CCOCC1)Cc1cccnc1
? | CC(=O)c1cccc(NC(=S)NC(=O)c2cccc(Cl)c2)c1
-8% | NC(=O)COC(=O)c1ccccc1OCc1ccccc1Cl
-24% | CCOC(=O)C1CCCN(CCC(=O)Nc2ccc(C)c(C)c2)C1 (centres undefined)
-10% | CC(SC(C)C(=O)NN=Cc1c[nH]c2ccccc12)C(=O)NN=Cc1c[nH]c2ccccc12 (centres undefined)
6% | COc1ccc(CCN2C(=O)C3CC=C(C)CC3C2=O)cc1OC (centres undefined)
1% | O=C(Nc1cccnc1)c1noc2c1CCCCC2
2% | NC(=O)c1ccc(NC(=O)CC23CC4CC(CC(Br)(C4)C2)C3)cc1
4% | COc1cc(OC)c(NC(=O)Nc2ccccc2OCc2cc(=O)n3cc(C)ccc3n2)cc1Cl
3% | Cc1ccc2[nH]c(C)cc(=S)c2c1
11% | CN1CCN(NC(=O)CC(C)(C)C)CC1
-5% | CCS(=O)(=O)c1c(S(=O)(=O)CC)c2ccccn2c1C(N)=O
-8% | Cc1ccc(NC(=O)CSc2nnc(C3CC3)n2CC2CCCO2)cc1C (centres undefined)
12% | Cc1ccc(S(=O)(=O)N(C)CC(=O)N2CC(C)OC(C)C2)cc1 (centres undefined)
13% | COc1ccc(C(C(=O)NC2CCCCC2)N(C(=O)CCl)c2ccccc2Cl)cc1 (centres undefined)
-5% | Cc1cc(C(=O)NC2CC(C)(C)Cc3c2cnn3-c2ccc(F)cc2)nn1C (centres undefined)
-14% | CC(C)N(Cc1ccccc1)C(=O)CN1c2cccc3cccc(c23)S1(=O)=O
3% | CCN(CC)c1ccc2cc(C(=O)O)c(=O)oc2c1
3% | C[C@H](CO)N1C[C@H](C)[C@@H](CN(C)Cc2ccc(Cl)c(Cl)c2)Oc2c(NS(=O)(=O)c3ccc(F)cc3)cccc2C1=O
-6% | O=C1c2ccccc2C2(c3ccccc3)NCCCN12 (centres undefined)
1% | CCCCn1c(N)c(N(CC(C)C)C(=O)c2ccc(N3C(=O)CCC3=O)cc2)c(=O)[nH]c1=O
-1% | Cc1ccc(C(C)C)c(OCCSc2nc(-c3cccs3)nc3cc(=O)[nH]n23)c1
-16% | CCCCC(Sc1nc(N)c(NC(=O)c2ccc(OC)cc2)c(=O)[nH]1)C(=O)O (centres undefined)
8% | CCCC(=O)Nc1ccc(-c2csc(NNC(C)=O)n2)cc1
-28% | COCCNC(=O)/C(C#N)=C/c1ccccc1Br
5% | COc1ccc(N2CC(C(=O)O)CC2=O)cc1 (centres undefined)
-22% | O=C(CSc1nc(O)c(C(c2ccccc2)c2ccccc2)c(=O)[nH]1)N1CCOCC1
-5% | NC(=O)c1ccccc1NC(=O)c1ccc(-c2ccc(Br)cc2)o1
0% | CC(C(=O)NC1=NCCS1)N1C(=O)c2ccccc2C1=O (centres undefined)
7% | COc1ccc(SCC(=O)c2cc(C)c(OC(=S)N(C)C)c(C)c2)cc1
2% | CCOc1ccccc1NC(=O)C1CC(=O)n2ncnc2N1 (centres undefined)
-3% | O=C(Nc1ccccc1)C1=C[C@H](c2coc3ccccc3c2=O)C[C@H](OCCCCO)O1
-6% | O=[N+]([O-])c1ccc(Oc2ccc(-c3cnc4ccccc4n3)cc2[N+](=O)[O-])cc1
7% | Cc1ccc(S(=O)(=O)C2(C(=O)Nc3ccc(Cl)c(C(F)(F)F)c3)CC2)cc1

# Part of the list above in order of number of heavy atoms, smallest number first:
VDR inh | Molecule
2% | COc1cc2c(cc1NC(C)=O)CCCC2
1% | Cc1cc(SCC(=O)c2cccs2)nc2ccccc12
-13% | Cc1ccc(/C=N\NC(=O)c2ccc(Cn3cc(Br)c([N+](=O)[O-])n3)o2)o1
-22% | O=C(CSc1nc(O)c(C(c2ccccc2)c2ccccc2)c(=O)[nH]1)N1CCOCC1
3% | C[C@H](CO)N1C[C@H](C)[C@@H](CN(C)Cc2ccc(Cl)c(Cl)c2)Oc2c(NS(=O)(=O)c3ccc(F)cc3)cccc2C1=O
4% | CCOC(=O)c1ccc(CN(Cc2ccc(F)cc2)S(=O)(=O)c2ccc(F)c(C(=O)Nc3ccc(Cl)cc3F)c2)cc1

# Later entries
VDR inh | Molecule
2% | COc1ccc(CN(C)c2ccc(S(=O)(=O)N3CCN(C)CC3)cc2[N+](=O)[O-])cc1OC
-7% | COC(=O)Cn1c(=NC(=O)c2ccc(Cl)s2)sc2cc(F)ccc21
2% | COc1cccc(NC(=O)C2CCN(S(=O)(=O)c3ccc4c(c3)C(C)(C)C(=O)N4C)CC2)c1
-9% | O=C(CN1CCC(Cc2ccccc2)CC1)NC(=O)NCc1ccccc1
-20% | CCN(C(=O)CN(C)S(=O)(=O)c1ccc2c(c1)c(=O)n(C)c(=O)n2C)c1ccc(OC)cc1
